From PubChem
VACV mCherry inh: qHTS for Stage-Specific Inhibitors of Vaccinia Orthopoxvirus: mCherry Reporter Primary qHTS. Vaccinia virus mCherry reporter infection, fluorescence; about a quarter of the inactives have no number. Potency, µM (doses to about 36.5 µM), without a hit: at the top dose activity change, negative = inhibition, usual class: inhibitors. hit rate 0.63% among 310,000; active = well fitted inhibition curve with a large enough effect; inconclusive = small, poorly fitted or top-dose-only effect; inactive = no such curve, though single readings can be large or run the other way; tested in A549 cells; also: nearly all actives have a fitted effect of over 35% in size; inactives centre near -10
Vaccinia Venus: qHTS for Stage-Specific Inhibitors of Vaccinia Orthopoxvirus: Venus Reporter Primary qHTS; hit rate 0.46% among 330,000; Vaccinia virus Venus reporter expression, fluorescence; Potency, µM (highest dose often 36.5 µM), for the others: at the highest dose activity change, negative = inhibition, usual class: inhibitors; active means well fitted inhibition curve with a large enough effect; inconclusive means small, poorly fitted or top-dose-only effect; inactive means no such curve, though single readings can be large or run the other way; tested in A549 cells; also: nearly all actives have a fitted effect of over 30% in size; inactives centre near -10
Numbers without * were called inactive; i = inactive; u = inconclusive; x = not tested or not shown; [ ] = another dose, or the depositor's remark. % is scaled to controls: 0 for no effect and ±100 for the full control effect; potency is read from the fitted curve at half-maximal effect.

Values run as follows: VACV mCherry inh, Vaccinia Venus
COC(=O)c1ccc(NC2CC(=O)N(c3ccccc3C)C2=O)cc1 (configuration not stated)
→ i, -11%
CSc1nnc2c(n1)[nH]c1c(C)cccc12
→ -15%, -29%
CCCCn1cnc2sc3c(c2c1=N)CCCC3
→ -30%, u
CC(C)c1ccc(OCc2nnc(SCC(=O)N3CCCCC3)o2)cc1
→ -5%, 3%
CC(=O)NC(c1ccccc1)c1nc(-c2cnc3ccccc3c2)cs1 (configuration not stated)
→ -2%, -22%
CC(=O)Nc1cc(-c2ccccc2)nn1Cc1ccc(Cl)cc1
→ -12%, -4%
Cc1ccc(Cc2cnc(NC(=O)C3Cc4ccc(C)cc4C(=O)O3)s2)cc1 (configuration not stated)
→ 8%, 11%
CCOc1ccccc1OCCC(=O)Nc1ccc2c(c1)OCO2
→ i, -7%
COc1cccc(OCc2cc(C(=O)N(C)C3CC(C)(C)NC(C)(C)C3)no2)c1
→ -3%, -17%
CCOC(=O)N1CCC(=NNc2ncc(C(F)(F)F)cc2Cl)CC1
→ 6%, 3%
C#C[C@]1(O)CCC2C3C(=O)C=C4C(Cl)=CCC[C@]4(C)C3CC[C@@]21C (some centres not stated)
→ u, u
Cc1ccc(S(=O)(=O)n2ccc3c(OCCOCCSCC(NC(=O)OC(C)(C)C)C(=O)O)cccc32)cc1 (configuration not stated)
→ -17%, -18%
O=C(CSc1nc2ccccc2[nH]1)NCc1ccc(F)cc1
→ i, -6%
C=CCN(c1ccccc1)S(=O)(=O)c1cccc(C(=O)N2CC(C)CC(C)C2)c1 (configuration not stated)
→ -26%, -24%
CCOC(=O)C(CC)n1nc(C)n2c(cc3occc32)c1=O (configuration not stated)
→ -1%, -2%
S=c1[nH]c2ncccc2o1
→ i, -6%
COc1ccc(CCNc2ncnc3nc[nH]c23)cc1
→ u, -29%
Clc1ccc(-c2cn3c(n2)CCC3)cc1
→ x, -8%
CCN(c1ccccc1)S(=O)(=O)c1cccc(C(=O)NCC(c2ccco2)N2CCCC2)c1 (configuration not stated)
→ -8%, -26%
CC(C)(C)[C@@H]1COC(=O)[C@H](Cc2ccc(F)cc2)C/C=C\C[C@H](CC(=O)N(CCO)Cc2ccccc2)C(=O)N1
→ -19%, u
COc1c2c(nc3ccccc13)OC(C(C)(O)CO)C2 (configuration not stated)
→ -15%, -12%
CCCCN(C)C(=O)c1cn(C)c2ccc(S(=O)(=O)N(C)C)cc2c1=O
→ 3%, 2%
O=C(c1ccc(Cl)c(S(=O)(=O)N2CCOCC2)c1)N(Cc1nnc(-c2ccccc2Cl)o1)C1CC1
→ -28%, -10%
O=C(NCCc1ccccc1)c1nn(-c2ccccc2Cl)nc1CO
→ 0%, -8%
CN1CCN(c2nc(-c3cc4ccccc4o3)cs2)CC1
→ i, -7%
CCCCCOc1ccc(NC(=O)C(=O)NCCC2=CCCCC2)cc1
→ x, -8%
CC1CN(C(=O)COC(=O)c2cccc(NS(=O)(=O)c3ccccc3)c2)CC(C)O1 (configuration not stated)
→ -18%, -16%
CN(CC(=O)Nc1cc(Cl)cc(Cl)c1)Cc1cccs1
→ -6%, -8%
COc1ccccc1CNS(=O)(=O)c1cccc(S(=O)(=O)N2CCOCC2)c1
→ -10%, -13%
Cc1ccc(S(=O)(=O)N2CCCCC2)c2nsnc12
→ -15%, -5%

Some of the entries so far, field by field:
CC(=O)NC(c1ccccc1)c1nc(-c2cnc3ccccc3c2)cs1 (configuration not stated)
  VACV mCherry inh: -2%	Vaccinia Venus: -22%
CC(=O)Nc1cc(-c2ccccc2)nn1Cc1ccc(Cl)cc1
  VACV mCherry inh: -12%	Vaccinia Venus: -4%
Cc1ccc(Cc2cnc(NC(=O)C3Cc4ccc(C)cc4C(=O)O3)s2)cc1 (configuration not stated)
  VACV mCherry inh: 8%	Vaccinia Venus: 11%

2 entries picked at random from the list so far, as already listed:
Values run as follows: VACV mCherry inh, Vaccinia Venus
CCCCCOc1ccc(NC(=O)C(=O)NCCC2=CCCCC2)cc1
→ x, -8%
CCCCN(C)C(=O)c1cn(C)c2ccc(S(=O)(=O)N(C)C)cc2c1=O
→ 3%, 2%

The list continues:
Values run as follows: VACV mCherry inh, Vaccinia Venus
Cc1cc2nc(-c3cccc(NC(=O)CSc4ccc(Cl)cc4)c3)oc2cc1C
→ -23%, -20%
CCOc1ccc(C2CC(=O)c3c([nH]c(C(=O)OCC4CCCCC4)c3C)C2)cc1 (configuration not stated)
→ -13%, -11%
COc1ccccc1CN(Cc1cc2cc(C)cc(C)c2[nH]c1=O)Cc1nnnn1CC1CCCO1 (configuration not stated)
→ -24%, -13%
CC(Oc1ccccc1)C(=O)Nc1c2c(nn1-c1ccccc1)CS(=O)(=O)C2 (configuration not stated)
→ -7%, 3%
Cc1ccc(C)c(CSc2cn(CCNC(=O)c3ccccc3F)c3ccccc23)c1
→ -24%, -21%
COc1ccccc1NC(=O)c1cc(S(=O)(=O)N(C)C2CCCCC2)ccc1F
→ -11%, -13%
CC(C)c1cccc(OCC(=O)Nc2ccc(S(=O)(=O)Nc3ccccn3)cc2)c1
→ u, -21%
C/C(=N\Nc1ccccc1)c1c(O)n(Cc2ccccc2)c(=O)[nH]c1=O
→ u, -27%
COc1ccccc1C(=O)Nc1ccc(S(=O)(=O)Nc2nc(C)cc(C)n2)cc1
→ -4%, 3%
CCOC(=O)C1CCC(CN(Cc2ccc(Cl)cc2)S(=O)(=O)c2ccc(Br)cc2)CC1 (configuration not stated)
→ 5%, 6%
O=C1OCc2ccc(NC(=O)C3CCCCC3)cc21
→ -19%, -11%
O=C(NC(Cc1ccccc1)C(=O)O)c1ccccc1 (configuration not stated)
→ x, 15%
N#Cc1cnc(SCC(=O)NNC(=O)COc2cccc3ccccc23)nc1N
→ i, -8%
O=C1CCCCCN1CP(=O)(O)CCc1ccccc1
→ -7%, -3%
O=C(CSc1ncccn1)Nc1ccc(S(=O)(=O)N2CCCCC2)cc1
→ -14%, -11%
N=C1N(c2ccccc2)C(=S)C(=Nc2ccccc2)N1c1ccccc1
→ u, -17%
CCC(C)NC(=O)CCS(=O)(=O)c1ccc2c(c1)n(C)c(=O)c(=O)n2C (configuration not stated)
→ 4%, -3%
CC1(C(=O)NCc2ccccc2)CN(S(C)(=O)=O)CC(=O)N1CCc1ccccc1F (configuration not stated)
→ -10%, 14%
CC(=O)c1cccc(NC(=O)CSc2nc(N3CCCCC3)nc(N3CCCCC3)n2)c1
→ -8%, -19%
C=C(C)CNC(=O)c1ccc2nc(Cc3ccc(OC)cc3)oc2c1
→ i, -19%
CC(=O)C1=C(NC(=O)c2ccccc2F)C[C@@H]2[C@H]1C2(C)C
→ x, -19%
CC1CCCC(NC(=O)COC(=O)CCC(=O)c2cccs2)C1C (configuration not stated)
→ i, -14%
Cc1ccccc1NC(=S)Nc1ccc(Br)cc1
→ i, -17%
COc1ccc(-n2nc3c(c2NC(=O)Cc2cccc(C)c2)CS(=O)C3)cc1 (configuration not stated)
→ -12%, -3%
CCOc1ccc(C(C)=O)cc1CSc1nnc(-c2ccncc2)n1CCOC
→ i, -10%
OC(CNC1CCCCC1)C(F)(F)F (configuration not stated)
→ i, -19%
COc1cc(=O)n2c(c1C(=O)NCc1nccs1)CCN(Cc1ccccc1F)CC2
→ -5%, -17%
Cc1n[nH]c(C)c1N=Nc1ccc(Br)cc1
→ -18%, -17%
CN(C)c1ccc(CSc2ccccc2)cc1
→ -8%, -4%
CN(C)c1nnnn1-c1ccc(Cl)cc1
→ i, -4%
Cc1ccc(Nc2ccccc2)nn1
→ -11%, -13%
CC(O)[C@H]1CN=C(N)N1CCc1cc(C(F)(F)F)cc(C(F)(F)F)c1 (some centres not stated)
→ -20%, -2%
CCOc1ccc(S(=O)(=O)N(C)CC(=O)NCc2ccccn2)cc1Cl
→ u, -26%
Cc1cc(C)c(C#N)c(N2CCC(C(N)=O)CC2)n1
→ i, -5%
O=C(COC(=O)c1ccc(NC(=O)C2CC=CCC2C(=O)O)cc1)c1ccccc1 (configuration not stated)
→ -10%, -13%
CC(=O)c1cccc(S(=O)(=O)Nc2ccc(N3CCOCC3)cc2)c1
→ 0%, 5%
Cc1ccc(OCC(=O)O/N=C(\N)c2ccncc2)cc1C
→ i, -11%
O=C(Nc1ccc2c(c1)CCC2)c1cccc(S(=O)(=O)N2CCN(c3ccc(F)cc3)CC2)c1
→ x, -29%
N#Cc1cc(-c2ccccc2)nc(Oc2ccc(Cl)cc2)n1
→ -11%, -6%
COC(=O)c1cn(CCOc2ccccc2OC)c2ccccc12
→ -26%, u
CNc1ccc([N+](=O)[O-])cc1
→ i, -11%
COc1ccc(C(=O)OC2C[C@H]3CC[C@H](C2)N3C)cc1OC (some centres not stated)
→ i, -8%
O=S1(=O)N=C(Nc2ccc(O)cc2)c2ccccc21
→ i, -9%
Cc1ccc(S(=O)(=O)N[C@H](C(=O)OCC(=O)N2N=C(c3ccc(Cl)cc3)CC2c2ccco2)C(C)C)cc1 (some centres not stated)
→ u, u
Cc1ccc(Oc2c(C=O)c3ccccc3n2C)cc1
→ x, -21%
O=C(Nc1cccc(Cl)c1)N1CCC(CN2CCOCC2)CC1
→ -4%, -5%
Cc1cc(N2CCCC2)ccc1NC(=O)CN1C(=O)NC2(CCCCC2)C1=O
→ -24%, -17%
C=CC(=O)Nc1cccc(Oc2ccnc(Nc3ccc(N4CCN(C)CC4)cc3)n2)c1
→ u, 3.5µM*
CC(=O)N1CCCc2cc(S(=O)(=O)N3CCN(c4ccccn4)CC3)ccc21
→ -3%, -19%
Cn1c(=O)[nH]c(=O)c2c1nc(NCCO)n2CC(O)COc1ccccc1 (configuration not stated)
→ -13%, -2%

Part of the list above, comma-delimited:
molecule,VACV mCherry inh,Vaccinia Venus
Cc1ccc(S(=O)(=O)N[C@H](C(=O)OCC(=O)N2N=C(c3ccc(Cl)cc3)CC2c2ccco2)C(C)C)cc1 (some centres not stated),u,u
Cc1ccc(Oc2c(C=O)c3ccccc3n2C)cc1,x,-21%
O=C(Nc1cccc(Cl)c1)N1CCC(CN2CCOCC2)CC1,-4%,-5%
Cc1cc(N2CCCC2)ccc1NC(=O)CN1C(=O)NC2(CCCCC2)C1=O,-24%,-17%

Three structures already listed, arranged by count of non-hydrogen atoms, rising:
Values run as follows: VACV mCherry inh, Vaccinia Venus
O=S1(=O)N=C(Nc2ccc(O)cc2)c2ccccc21
→ i, -9%
CC(=O)N1CCCc2cc(S(=O)(=O)N3CCN(c4ccccn4)CC3)ccc21
→ -3%, -19%
Cc1ccc(S(=O)(=O)N[C@H](C(=O)OCC(=O)N2N=C(c3ccc(Cl)cc3)CC2c2ccco2)C(C)C)cc1 (some centres not stated)
→ u, u

(continued)
Values run as follows: VACV mCherry inh, Vaccinia Venus
CC(C)c1ccc(C(=O)OCC(=O)Nc2cccc(S(=O)(=O)NC3=NCCC3)c2)cc1
→ i, -13%
CC(C)c1ccc2nc(N)sc2c1
→ i, -13%
O=C(COc1ccc(F)cc1)Nc1ccccc1OCc1cc(=O)n2ccccc2n1
→ i, -11%
NC(N)=NCCC[C@H](NC(=O)[C@@H](N)Cc1ccc(O)cc1)C(=O)O
→ -9%[3.33 µM], -4%[3.33 µM]
C=C1CCN(c2ccc(C(=O)NCc3ccc(C)cc3)cc2[N+](=O)[O-])CC1
→ -21%, -11%
COc1cc(NC(=O)Nc2ccccc2)c(OC)cc1NC(=O)CN1CCCCC1
→ u, u
CC(=O)c1cccc(NC(=O)CCn2c(=O)oc3ccccc32)c1
→ -12%, 1%
CCOc1ccc(-c2cc3c(=O)n(CC(=O)NCc4ccc(Cl)cc4)ccn3n2)cc1
→ 0%, -2%
O=C(c1ccc(Cl)c([N+](=O)[O-])c1)N(Cc1cccc(Cl)c1)C1CCS(=O)(=O)C1 (configuration not stated)
→ i, -8%
COc1ccccc1Nc1nc(C)cc(=O)[nH]1
→ i, -7%
CC(C)C(C(=O)NCC1CCCO1)N(C(=O)CNS(=O)(=O)c1ccc(F)cc1)c1ccccc1 (configuration not stated)
→ i, 2%
COc1ccc(C(=O)NC(=S)Nc2cccnc2)cc1[N+](=O)[O-]
→ -2%, 17%
CC(=O)c1ccc(NC(=O)c2ccccc2Sc2ncnc3sc(C)c(C)c23)cc1
→ i, -22%
O=C(C1=C[C@H](c2ccccc2)C[C@H](OCc2ccc(CO)cc2)O1)N1CCN(Cc2ccccc2)CC1
→ -6%, -30%
C/C(=N\NC(=O)c1ccc(Cl)cc1)c1cccs1
→ -26%, u
COCCn1c(N)c(Sc2ccc(C)cc2)c(=O)[nH]c1=O
→ i, -2%
Cc1cccc(N(CC(=O)N2CCN(c3ccccc3F)CC2)S(C)(=O)=O)c1
→ -19%, -15%
CN(C)S(=O)(=O)N1CCC(Oc2cccc(C(=O)N3CCSCC3)c2)CC1
→ i, -20%
N#C/C(=C\c1c(Oc2ccccc2F)nc2ccccn2c1=O)C(=O)NC1CCS(=O)(=O)C1 (configuration not stated)
→ -13%, 8%
O=C(C[C@@H]1C/C=C\C[C@H](Cc2ccc(F)cc2)C(=O)OC[C@@H](c2ccccc2)NC1=O)NCCO
→ i, -22%
CC(C)c1ccc(-c2nc(C(N)=O)c3c(n2)n(-c2ccc4c(c2)OCO4)c(=O)n3C)cc1
→ -2%, -21%
Cc1ccc(S(=O)(=O)c2c(Nc3cc(F)ccc3F)sc(C(=O)c3ccc(F)cc3)c2N)cc1
→ u, u
